# Bioassay records from PubChem.
# 2A StopGo: High Throughput Screening for Foot and Mouth Disease Virus Antivirals. human cells with a luciferase reporter of 2A StopGo recoding; control for the full effect not named in the record. Potency, µM (doses to about 57.9 µM), without a hit: at the highest dose signal change, negative = less light. actives 1.2% (n = 410,000); active = well fitted falling curve with a large enough effect; inconclusive = small, poorly fitted or top-dose-only effect; inactive = no such curve, though single readings can be large or run the other way; tested in HEK293T cells; note: % is set by controls: 0 for no effect and ±100 for the full control effect; nearly all actives have a fitted effect of over 45% in size; luciferase light after 4 h
# NS1 inh: qHTS Assay for Inhibitors of Influenza NS1 Protein Function; S. cerevisiae slowed by influenza A NS1, growth recovery by OD600; Potency, µM (series often up to 46.1 µM), inactives show at the highest dose activity, positive = more growth; actives 0.4% (n = 270,000); active means well fitted rising curve with a large enough effect; inconclusive means small, poorly fitted or top-dose-only effect; inactive means no such curve, though single readings can be large or run the other way; note: nearly all actives have a fitted effect of over 50% in size
#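 Compounds were scored for reversing the slow growth caused by influenza A NS1 in S. cerevisiae, measured by optical density at 600 nm. Assay medium contained 2% galactose at pH 6.0; NS1-free yeast of the same strain were the positive control.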
# LASV entry inh: qHTS for Inhibitors of binding or entry into cells for Lassa Virus | Potency, µM (titrated, usually from 37.9 µM), without a hit: at the top dose activity change, negative = inhibition, usual class: inhibitors | actives 1.2% (n = 300,000) | Lassa virus pseudotype entry inhibition, cell reporter; control for the full effect not named in the record; active means well fitted inhibition curve with a large enough effect; inconclusive means small, poorly fitted or top-dose-only effect, or effect the other way; inactive means flat fitted curve, though single readings scatter; tested in HEK293 cells; note: % is set by controls: 0 for no effect and ±100 for the full control effect; nearly all actives have a fitted effect of over 50% in size; luciferase read-out
# SARS PLP yeast: qHTS of Yeast-based Assay for SARS-CoV PLP | AID 485353, 2010 | S. cerevisiae expressing SARS-CoV PLpro, growth rescue; control for the full effect not named in the record | Potency, µM (titrated, usually from 32.9 µM), inactives show at the highest dose activity, positive = growth rescue | actives 0.19% (n = 330,000); active means well fitted rising curve with a large enough effect; inconclusive means small, poorly fitted or top-dose-only effect; inactive means no such curve, though single readings can be large or run the other way; note: 0% is about no effect; nearly all actives have a fitted effect of over 55% in size; growth read by luminescence after 48 h
# Cruzain inh Det: qHTS Assay for Promiscuous and Specific Inhibitors of Cruzain (with detergent); Potency, µM, for inactives: max response, negative = inhibition, actives largely listed as inhibitors; purified cruzain, Z-FR-AMC fluorescence, 0.01% Triton; actives 0.43% (n = 200,000);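 note: plate controls were neutral wells for no effect and buffer without enzyme for full effect; nearly all actives have a fitted effect of over 40% in size; top concentration of the series not given in the record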
# Target sequence (P25779 123-467 limits assumed): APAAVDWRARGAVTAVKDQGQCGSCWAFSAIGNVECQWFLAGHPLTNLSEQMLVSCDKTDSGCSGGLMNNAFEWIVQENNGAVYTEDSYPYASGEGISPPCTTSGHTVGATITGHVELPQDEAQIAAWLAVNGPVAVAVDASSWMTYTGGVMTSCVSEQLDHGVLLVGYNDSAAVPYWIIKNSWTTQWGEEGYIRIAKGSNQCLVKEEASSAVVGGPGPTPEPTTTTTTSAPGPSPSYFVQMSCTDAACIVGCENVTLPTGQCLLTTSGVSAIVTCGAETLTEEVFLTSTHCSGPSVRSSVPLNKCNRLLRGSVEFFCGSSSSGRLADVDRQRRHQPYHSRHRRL
#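 Detergent-containing arm of a paired screen for aggregation-based inhibition: 0.01% Triton X-100 present. Cruzain at 1.5 nM cleaved 2 uM Z-FR-AMC at pH 5.5 with 5 mM DTT; AMC fluorescence gain over 60 s measured activity.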
# Cruzain noTriton: qHTS Assay for Promiscuous and Specific Inhibitors of Cruzain (without detergent); Cruzipain (Trypanosoma cruzi), P25779; purified cruzain, Z-FR-AMC fluorescence, no detergent; Potency, µM, without a hit: max response, negative = inhibition, usual class: inhibitors; actives 2.3% (n = 200,000);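 note: plate controls were enzyme without inhibitor for no effect and buffer without enzyme for full effect; nearly all actives have a fitted effect of over 40% in size; top concentration of the series not given in the record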
#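 Detergent-free condition (0.00005% Triton X-100) in acetate buffer pH 5.5 with DTT. 1.5 nM enzyme and compound were pre-mixed 15 min, then 2 uM Z-FR-AMC substrate added; reaction progress from fluorescence change between first and third reads (60 s).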
# RE007 growth inh: qHTS Assay for Inhibitors of the HIV-1 protein Vpr; S. pombe RE007 Vpr strain, BacTiter-Glo ATP luminescence, 24 h; control for the full effect not named in the record; Potency, µM (series often up to 92.2 µM), for inactives: at the top dose activity change, negative = less growth; actives 0.21% (n = 360,000); AID 651644, 2012; active = well fitted falling curve with a large enough effect; inconclusive = small, poorly fitted or top-dose-only effect; inactive = no such curve, though single readings can be large or run the other way;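 note: % is set by controls: 0 for no effect and ±100 for the full control effect; nearly all actives have a fitted effect of over 50% in size; the assay follows cell death caused by Vpr and the record does not say whether a fall means rescue or toxicity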
#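 Fission yeast strain RE007, carrying one chromosomally integrated HIV-1 vpr copy, was seeded at OD 0.01 in PMG+AL medium with 23 nL pinned compound. After 24 h at 30 °C and 99% humidity, viability was read by BacTiter-Glo luminescence.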
# Marburg entry inh: qHTS for inhibitors of binding or entry into cells for Marburg Virus; Marburg virus pseudotyped entry inhibition, cell reporter; control for the full effect not named in the record; about a third of the inactives were read at about 46 µM; Potency, µM (series often up to 37.8 µM), for inactives: at the highest dose activity change, negative = inhibition, actives largely listed as inhibitors; actives 1.8% (n = 300,000); AID 540276, 2011; active = well fitted inhibition curve with a large enough effect; inconclusive = small, poorly fitted or top-dose-only effect, or effect the other way; inactive = flat fitted curve, though single readings scatter; tested in HEK293 cells; about a fifth of its hits are not listed in these tables; note: % is set by controls: 0 for no effect and ±100 for the full control effect; luciferase read-out
# Active calls of the source: *; u = inconclusive; x = no result given; & = joins results of further samples; [ ] = dose if it differs, or a comment. Unless noted, calls come from the whole dose curve; as a rule, active = well fitted curve in the direction sought with a large enough effect; inconclusive = small, poorly fitted or top-dose-only effect, or another doubt; inactive = no such curve, though single readings can be large; an effect the other way counts as inactive or inconclusive. Potency is the fitted concentration of half-maximal effect.
SMILES,2A StopGo,NS1 inh,LASV entry inh,SARS PLP yeast,Cruzain inh Det,Cruzain noTriton,RE007 growth inh,Marburg entry inh
CCOC(=O)c1[nH]c(C)c(C(=O)Nc2ccccc2F)c1C,47%[activator],-4%,u,13%,-7.1%,-22%,-1%,1%
CC1CCCCN1c1nnc(NC(=O)c2cc(-c3ccc(Br)cc3)on2)s1 (stereo not given),u,28%,x,2%,-2.9%,u,-5%,x
Cc1ccnc(N2CCC(C(=O)NCc3ccc4c(c3)OCO4)CC2)n1,-20%,0%,-2%,2%,-3.1%,4%,1%,0%
Cc1nc(SCC(=O)Nc2c(C)n(C)n(-c3ccccc3)c2=O)nc(C)c1C,10%,5%,-11%,-1%,9.0%,-7%,1%,18%
O=C(CNC1CCN(Cc2ccccc2)CC1)Nc1ccc(S(=O)(=O)N2CCCCC2)cc1,-12%,1%,x,0%,x,x,7%,x
CCc1ccc(C(=O)N2CCN(c3ccc(NC(=O)c4cccnc4)cc3)CC2)cc1,-6%,7%,u,-2%,x,x,-10%,-9%
Cc1ccc(S(=O)(=O)n2[nH]c(=O)c(CCO)c2C)cc1,-3%,2%,21%[46.1 µM],0%,x,x,-2%,u
CN1CCN(CCC(=O)Nc2ccc(F)c(F)c2)CC1,21%,-12%,4%,5%,3.6%,-4%,16%,7%
O=C(NC(=S)Nc1nc2c(s1)CCCC2)c1ccc(C(=O)c2ccccc2)cc1,u,12%,11%,-15%,-0.2%,25µM*,x,7%
O=C(Nc1ccc(F)cc1)Nc1nnc(Cc2ccccc2)s1,-8%,15%,-27%,13%,x,x,4%,-8%
COc1cccc(-c2nnc3sc(C4CCCCC4)nn23)c1,18%,-114%,-7%,-12%,-3.0%,6%,2%,15%&15%
O=C(NCCN1CCN(c2ccccc2)CC1)C1CCCN(S(=O)(=O)c2cnc[nH]2)C1 (stereo not given),-10%,9%,x,6%,1.8%,-13%,-2%,x
O=C(COC(=O)[C@@H]1CC(O)CN1S(=O)(=O)c1ccc2c(c1)OCCO2)NCc1ccc(F)cc1 (stereo not given in full),21%,x,14%[46.1 µM],-1%,x,x,-4%,0%[46.1 µM]
FC(F)(F)c1cc(-c2cccs2)nc(NCc2ccco2)n1,-16%,-45%,-2%,-12%,-3.8%,-1%,3%,u
O=C1c2ccccc2C(=O)N1Cc1nc2ccccc2c(=O)n1Cc1ccco1,19%,-4%,8%,0%,-1.4%,-12%,5%,-14%
COc1ccc(OC)c(-c2csc(-c3c(N)c(C(=O)c4ccc(Cl)cc4)n4ccccc34)n2)c1,-8%,x,-3%[46.1 µM],x,-0.7%,-22%,x,-1%[46.1 µM]
Cc1cc(C(=O)OCC(=O)c2c(N)n(C)c(=O)n(C)c2=O)c(C)n1-c1ccccc1,-18%,u,7%,-3%,10%,14%,13%,-1%
Nc1ccccc1S(=O)(=O)c1ccccc1N,x,1%,3%,5%,-4.8%,5%,11%,-9%
COc1cccc(OC)c1C(=O)OCC(=O)NC(=O)NCc1ccccc1,-24%,-3%,10%,1%,x,x,-5%,-14%[46.1 µM]
c1ccc(-c2nc3ccccc3nc2-c2ccccn2)nc1,3%,6%,3%,5%,-2.6%,-16%,6%,-14%
O=C(NC1CCCC1)c1cc(S(=O)(=O)N2CCOCC2)c(Cl)cc1Cl,-22%,1%,x,0%,x,x,-8%,-27%[46.1 µM]
CCN1CCCC1CNC(=O)c1ccc2c(=O)n(CCOC)c(=O)[nH]c2c1 (stereo not given),-4%,6%,7%,-4%,2.0%,18%,-11%,3%
COc1ccccc1NC(=O)CSc1nc2ccccc2c(=O)n1CC1CCCO1 (stereo not given),-7%,-55%,-5%,-2%,x,x,9%,3%[46.1 µM]
Cc1ccc(S(=O)(=O)N(C)c2c(C)ccc(S(=O)(=O)NC(C)(C)C)c2C)cc1,7%,2%,u,0%,x,x,23%,u
CCOc1cc(C(=O)Nc2cccc3cccnc23)cc(OCC)c1OCC,-25%,x,-24%[46.1 µM],x,-9.1%,27%,x,u
COc1cc(CN2CCN(C(=O)CC(C)C)CC2)c([N+](=O)[O-])cc1OC,-14%,-4%,-6%[46.1 µM],-1%,x,x,9%,-13%[46.1 µM]
O=C(NC1CCCC1)C(c1ccccn1)N(C(=O)c1csnn1)C1CCCC1 (stereo not given),12%,28%,-2%,-2%,-0.4%,14%,-5%,-1%
S=c1nc(C2COc3ccccc3O2)[nH][nH]1 (stereo not given),29%,7%,14%[46.1 µM],0%,x,x,5%,2%[46.1 µM]
CCNc1nc2c(c(=O)[nH]c(=O)n2C)n1CC(C)C,-5%,-2%,x,10%,1.4%,-1%,3%,x
O=C(CSc1ccc(-c2cccnc2)nn1)Nc1ccccc1F,-21%,2%,-12%,-3%,x,x,7%,8%
Cc1cc(Cl)c2ccc3ccccc3c2n1,-1%,-1%,2%,-1%,x,x,11%,19%[46.1 µM]
CC1(C)N=C(N)NC(Nc2ccccc2)=N1,14%,7%,21%,6%,-7.0%,1%,8%,-9%
COc1ccc(Cl)cc1NC(=O)C1CC(=O)N(C2CCCCC2)C1 (stereo not given),-14%,-6%,-4%,13%,x,x,-24%,1%
COc1ccc(N2CCN(C(=O)CSc3nc4ccccc4c(=O)[nH]3)CC2)cc1,u,11%,-5%,1%,x,x,10%,-17%[46.1 µM]
CC(C)c1ccc(NC(=O)c2ccc(=O)n(Cc3ccccc3)c2)cc1,-8%,x,-27%[46.1 µM],x,-6.8%,-1%,x,x
Cc1ccc(NS(=O)(=O)c2ccc(C(=O)N3CCC3)cc2)cc1,1%,x,-27%,-6%,x,x,-8%,-16%[46.1 µM]
O=C(NCC(=O)N1CCOCC1)c1ccc(Cl)cc1,-1%,8%,x,14%,x,x,-12%,x
Cc1cc(S(=O)(=O)N2CCN(CC(=O)N(C)Cc3ccccc3)CC2)ccc1Br,u,x,u,12%,x,x,3%,-30%
CCN(CCCNC(=O)CN1C(=O)COc2ccccc21)c1ccccc1,x,-3%,19%,2%,1.5%,2%,-3%,3%
O=C(O)C1CCCCC1C(=O)NCc1ccccc1 (stereo not given),-8%,4%,u,8%,-9.6%,2%,7%,u
N#CCCN1CCN(S(=O)(=O)c2ccc(S(=O)(=O)NCc3ccccc3)cc2)CC1,8%,5%,x,-6%,-5.7%,3%,-6%,-4%
Cc1ccc(/C(CSc2nccn2-c2ncc(C(F)(F)F)cc2Cl)=N\O)cc1,u,-6%,u,-1%,-7.4%,-2%,5%,u
CCC(OC(=O)c1nsc(Cl)c1Cl)C(=O)NCCc1ccccc1 (stereo not given),-5%,-4%,25%[46.1 µM],1%,x,x,2%,10%[46.1 µM]
CC(C)NC(=O)C1=CC(c2ccc3c(c2)OCO3)=NS(=O)(=O)N1C,3%,x,u,x,-4.5%,0%,x,5%[46.1 µM]
C=CCn1c(N2CCN(c3ccc(OC)cc3)CC2)nc2c1c(=O)n(C)c(=O)n2C,28µM*,x,u,2%,x,x,4%,u
Cc1cccc(NC(=O)NC2CCCCCCC2)c1C,56%[activator],4%,17%[46.1 µM],2%,x,x,5%,-2%[46.1 µM]
O=S(=O)(NCc1ccccc1)NCc1ccc(Cl)cc1Cl,39%[activator],-31%,x,3%,x,x,-10%,x
O=C(NC1CCCC1)c1cc2cc(Br)ccc2o1,10%,-32%,-24%[46.1 µM],0%,x,x,u,-6%[46.1 µM]
CC1(C)CC(NC(=O)COc2ccc(Br)cc2Cl)CC(C)(C)N1,-31%,10%,x,-1%,x,x,-3%,x
Cc1cccc(-n2ncc3c(Nc4c(C)n(C)n(-c5ccccc5)c4=O)ncnc32)c1,0%,0%,-13%,13%,4.9%,-4%,24%,-1%
c1ccc(CN(Cc2ccccc2)c2ncnc3c2nnn3Cc2ccccc2)cc1,-19%,2%,u,0%,x,x,-5%,u
O=C(COC(=O)c1ccccc1F)Nc1cccnc1Cl,6%,-7%,-4%,-4%,x,x,-13%,0%[46.1 µM]
C=CCNC(=O)c1onc(CSc2ccc(F)cc2)c1C(=O)O,-15%,17%,x,-7%,0.7%,0%,2%,x
COc1ccc(C(=O)C(C)Oc2cccc(NC(=O)c3cccc([N+](=O)[O-])c3)c2)cc1 (stereo not given),0%,-3%,u,7%,-5.4%,u,-14%,u
CCCCn1cnc2c(oc3nc4c(cc32)CCCC4)c1=O,-2%,-5%,x,-1%,x,x,-20%,x
Cc1nc2ccccc2c(=O)n1-c1ccc(NS(=O)(=O)c2cc(F)ccc2F)cc1,-17%,x,-13%,-10%,x,x,-7%,u
O=C(CNC(=O)c1ccc(Br)cc1)c1ccccc1,56%[activator],-6%,x,-3%,x,x,1%,x
Cc1ccc(-c2nc(CSCC(=O)Nc3cc(C)on3)c(C)o2)cc1,u,-6%,x,1%,-1.5%,-12%,8%,x
O=C(COc1coc(CN2CCc3ccccc3C2)cc1=O)Nc1ccc(F)cc1,-6%,x,1%,-1%,x,x,3%,-3%
COC(=O)CNC(=O)CNC(=O)c1nn(-c2ccc(OC)c(OC)c2)c(=O)c2ccccc12,-19%,-1%,x,5%,x,x,2%,x

# Later entries
SMILES,2A StopGo,NS1 inh,LASV entry inh,SARS PLP yeast,Cruzain inh Det,Cruzain noTriton,RE007 growth inh,Marburg entry inh
CCSc1nc(=S)cc(C)[nH]1,18%,-6%,x,-4%,x,x,12%,x
O=c1[nH]c2ccccc2n1C1=CCCC1,-19%,-63%,-10%,2%,2.9%,13%,-2%,-3%
O=C(NCc1ccccc1)N1CCN(c2ccc(F)cc2)CC1,-22%,-8%,-14%,-27%,-0.8%,11%,u,-3%
O=C(c1cc2ncc(Br)cn2n1)N1CCOCC1,5%,13%,20%,5%,-1.8%,-10%,-2%,11%
Cc1ccc(S(=O)(=O)CCc2nnc(NC(=O)CCl)s2)cc1C,-4%,3%,u,0%,x,x,11%,u
O=S(=O)(c1ccccc1)c1nc(NCc2ccccc2)sc1Cl,10%,-10%,-21%,-6%,-6.8%,-6%,31%,-36%
Cc1ccc(NC(=O)CCC(=O)c2ccc(Br)cc2)cc1,-4%,-1%,x,-2%,x,x,-6%,x
